Cruzain inh noDet – cruzain (T. cruzi) inhibition without detergent. P25779. purified cruzain, Z-FR-AMC fluorescence, no detergent. Potency, µM, for the others: max response, negative = inhibition, hits mostly inhibitors. hit rate 2.3% among 200,000. AID 1476;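 further: plate controls were enzyme without inhibitor for no effect and buffer without enzyme for full effect; nearly all actives have a fitted effect of over 40% in size; top concentration of the series not given in the record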
Target sequence (P25779 123-467 limits assumed): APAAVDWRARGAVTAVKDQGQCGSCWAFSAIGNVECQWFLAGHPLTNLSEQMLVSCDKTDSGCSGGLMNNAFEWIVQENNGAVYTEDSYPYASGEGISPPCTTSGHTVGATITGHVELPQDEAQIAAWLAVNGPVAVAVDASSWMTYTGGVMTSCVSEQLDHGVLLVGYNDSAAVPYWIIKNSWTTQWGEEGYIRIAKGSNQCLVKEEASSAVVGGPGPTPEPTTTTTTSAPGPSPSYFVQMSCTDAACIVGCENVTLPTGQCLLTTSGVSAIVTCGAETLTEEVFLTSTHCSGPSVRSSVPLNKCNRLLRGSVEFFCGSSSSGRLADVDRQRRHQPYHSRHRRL
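Purified cruzain at 1.5 nM, pre-incubated 15 min with compound at room temperature in 100 mM sodium acetate pH 5.5, 5 mM DTT, 0.00005% Triton X-100. Reaction started with 2 uM Z-FR-AMC; AMC fluorescence increase over 60 s gives rate.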
SARS PLP yeast – SARS-CoV PLP inhibition in yeast. S. cerevisiae expressing SARS-CoV PLpro, growth rescue; control for the full effect not named in the record. hit rate 0.19% among 330,000. Potency, µM (doses to about 32.9 µM), for inactives: top-dose activity, positive = growth rescue. AID 485353; active means well fitted rising curve with a large enough effect; inconclusive means small, poorly fitted or top-dose-only effect; inactive means no such curve, though single readings can be large or run the other way; further: 0% is about no effect; nearly all actives have a fitted effect of over 55% in size; growth read by luminescence after 48 h
Cruzain Triton – inhibitors of Trypanosoma cruzi cruzain with detergent; P25779; purified cruzain, Z-FR-AMC fluorescence, 0.01% Triton; Potency, µM, for inactives: max response, negative = inhibition, actives largely listed as inhibitors; hit rate 0.43% among 200,000;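 further: plate controls were neutral wells for no effect and buffer without enzyme for full effect; nearly all actives have a fitted effect of over 40% in size; top concentration of the series not given in the record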
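Enzyme 1.5 nM, Z-FR-AMC 2 uM, NaOAc 100 mM pH 5.5, DTT 5 mM, Triton X-100 0.01%; 15 min RT compound preincubation; kinetic ex360/em450, 60 s delta.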
NS1 inh – influenza NS1 inhibition; S. cerevisiae slowed by influenza A NS1, growth recovery by OD600; Potency, µM (series often up to 46.1 µM), inactives show top-dose activity, positive = more growth; hit rate 0.4% among 270,000; AID 2326; active means well fitted rising curve with a large enough effect; inconclusive means small, poorly fitted or top-dose-only effect; inactive means no such curve, though single readings can be large or run the other way; further: nearly all actives have a fitted effect of over 50% in size
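S. cerevisiae expressing influenza A NS1, grown in glucose, washed, then diluted 1:100 into pH 6.0 -URA galactose medium with 23 nl compound. Growth recovery read as OD600; NS1-free strain serves as control.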
* = called active by the depositor; ? = inconclusive; · = not tested or not shown. Unless noted, the call rests on the fitted dose curve; in most records, active means well fitted curve in the direction sought with a large enough effect; inconclusive means small, poorly fitted or top-dose-only effect, or another doubt; inactive means no such curve, though single readings can be large; an effect the other way counts as inactive or inconclusive. Potency means the concentration at half of the fitted maximal effect.

SMILES	Cruzain inh noDet	SARS PLP yeast	Cruzain Triton	NS1 inh
Cc1cn(CC[C@H](N)C(=O)O)c(=O)[nH]c1=O	9%	·	4.1%	0%
O=C1CN2CCN(CC2)CC(=O)Nc2ccc(cc2)S(=O)(=O)c2ccc(cc2)NC(=O)CN2CCN(CC2)CC(=O)Nc2ccc(cc2)S(=O)(=O)c2ccc(cc2)N1	3.2µM*	·	3.2µM*	25%
CN(C)CCNc1ccccn1	3%	·	2.3%	-3%
Cc1ccc(S(=O)(=O)N=Nc2c(O)[nH]c3cc(O)c(C(=O)O)cc23)cc1	-8%	·	2.2%	-5%
NNC(=O)CS(=O)(=O)Nc1ncccn1	3%	·	-0.7%	-3%
C[C@@H](CSC(=N)N)C(N)=O	2%	·	2.5%	0%
NC(Cc1ccccc1)(C(=O)O)C(=O)O	0%	·	0.2%	-2%
N[C@@H](CSCc1ccccc1)C(=O)O	-6%	·	4.1%	4%
Cc1cc(Cc2cc(C)c(N)cc2N)c(N)cc1N	6%	·	-2.5%	8.9µM*
CC(=O)C=NCC(=O)O	0%	·	3.7%	0%
S=c1nc[nH]c2c1ncn2Cc1ccco1	5%	·	1.2%	0%
Oc1c(Br)cc(Br)cc1CN(Cc1cc(Br)cc(Br)c1O)C1CCCCC1	-3%	·	-2.8%	5%
NC(Cc1ccccc1)=NCC(=O)O	4%	·	4.9%	2%
O=C(O)CNc1ccc(C(=O)O)cc1	8%	·	3.0%	0%
Cc1ccc(S(=O)(=O)NC(=O)Nc2ncn[nH]2)cc1	16%	·	3.6%	-3%
Nc1ncnc2nn([C@H]3O[C@@H](CO)[C@@H](O)[C@H]3O)nc12	14%	·	1.6%	-1%
COc1ccc(CN[C@H](C)C(=O)O)cc1	-2%	·	4.0%	-6%
Nc1ccc(S(=O)(=O)NCc2nccs2)cc1	0%	·	-0.7%	-2%
CC(C)(O)/C=C\C(=O)[C@](C)(O)[C@H]1[C@H](O)C[C@]2(C)[C@@H]3CC=C4[C@@H](C=C(O)C(=O)C4(C)C)[C@]3(C)C(=O)C[C@@]12C	2%	·	-3.7%	-8%
O=C(O)[C@@H]1[C@@H](C(=O)NCc2ccncc2)[C@@H]2C=C[C@@H]1O2	5%	·	0.3%	6%
O=C1Oc2ccccc2C(=O)/C1=C\N1C(=O)N/C(=C\c2ccccc2O)C1=O	-7%	·	-3.7%	3%
OCCSCc1cc(Cl)cc(Cl)c1O	3%	·	5.7%	-10%
C[C@@H](N1CCOCC1)[C@@](O)(c1ccccc1)c1ccccn1	0%	·	11%	3%
O=C(O)c1c2c(c(O)c3c1CN(C1CCCCC1)CO3)OCN(C1CCCCC1)C2	5%	·	2.5%	14%
Cn1c([N+](=O)[O-])cnc1CN1CCN(CCO)CC1	2%	·	-1.3%	-2%
COc1cc2c3cc1Oc1c(OC)c(OC)cc4c1[C@@H](Cc1ccc(O)c(c1)Oc1ccc(cc1)C[C@@H]3N(C)CC2)CN(C)C4	-7%	·	0.9%	10%
O=C(O)NCc1ccccc1 (tested in a mixture with another compound)	-10%	·	1.5%	-5%
NC(N)=N/N=C(/c1ccccc1)c1ccc(O)cc1O	-5%	·	-2.9%	-3%
CN(CCc1ccccn1)c1ccc2c(c1)C(=O)c1ccccc1-2	-12%	·	-10.0%	-31%
COC(=O)c1cc(-c2ccc3ccccc3c2)[nH]c(=O)c1C#N	8%	·	2.2%	3%
O=C(O)c1cc2c(cc1S(=O)(=O)O)[C@H]1[C@@H](C3[C@H]2[C@@]2(Cl)C(Cl)=C(Cl)C3(Cl)C2(Cl)Cl)[C@]2(Cl)C(Cl)=C(Cl)C1(Cl)C2(Cl)Cl (stereo partly drawn)	13%	·	-0.7%	?
CC(C)Cn1cnc2c(SCc3ccc(Cl)cc3Cl)nc(N)nc21	-5%	·	-2.0%	-3%
NNC(=O)Cc1cccnc1	0%	·	-1.2%	11%
O=C1CCC[C@H]1C(=O)Nc1ccc2ccccc2c1	-1%	·	4.3%	0%
CC(C)[C@@H](C(=O)O)N1C(=O)c2ccccc2C1=O	12%	·	13%	-3%
NS(=O)(=O)c1ccc(N=Nc2ccc(O)c(C(=O)O)c2)cc1	10%	·	2.2%	11%
C(CCc1nnc2c(n1)CCCC2)Cc1nnc2c(n1)CCCC2	2%	·	-2.6%	2%
O=C(O)CCSCc1ccc(I)cc1	-1%	·	8.5%	-32%
Nc1[nH]c(=S)[nH]c(=O)c1N=Nc1c(Br)cc(S(N)(=O)=O)cc1Br	1%	·	-0.8%	0%
C[C@@H](CCC(=O)O)C(=O)O	-1%	·	2.8%	0%
NS(=O)(=O)c1ccc(NCc2nc3ccccc3[nH]2)cc1	4%	·	3.1%	-3%
c1ccc(C[n+]2cccc(-c3cc4ccccc4[nH]3)c2)cc1	-4%	·	-0.4%	-6%
CN(C)C[C@H]1CCC2=C(C1=O)C(c1ccc(Cl)c(Cl)c1)C1=C(CC[C@H](CN(C)C)C1=O)O2	-8%	·	-4.4%	-11%
O=C(O)c1ccccc1N[C@H](c1ccccc1)c1ccc2cccnc2c1O	-5%	·	-0.1%	-36%
C[C@]12CC[C@H](O)CC1=CC[C@H]1[C@@H]2CC[C@@]2(C)C(N(CCO)CCO)CC[C@@H]12 (stereo partly drawn)	-4%	·	9.7%	-8%
C[N+](C)(C)c1nc(N)nc2c1ncn2[C@H]1O[C@@H](CO)[C@@H](O)[C@H]1O	0%	·	1.4%	-6%
Nc1cc(C(=O)O)[nH]c(=O)n1	9%	·	1.6%	-4%
O=C(O)C[O][Sb][O]CC(=O)O	-6%	·	0.9%	3%
O=C(O)c1ccc(C(=O)c2ccccc2C(=O)O)cc1C(=O)O	2%	·	-2.6%	3%
C[C@@H](O)CN(CCN(C[C@@H](C)O)C[C@@H](C)O)C[C@@H](C)O.O=[N+]([O-])O.[Cu]	10%	·	3.3%	-3%
C[C@H](Br)CN(C[C@H](C)Br)c1ccc2c(c1)Cc1ccccc1-2	5%	·	-4.1%	-13%
O=C(C[C@@H](C(=O)O)N1CCOCC1)c1ccccc1	1%	·	3.1%	-1%
N=C(N)SCCN1CCCCC1	-2%	·	3.9%	-6%
O=C(O)/C=C\c1ccc[c]([Sb])c1	14%	·	-3.8%	5%
CCSC[C@@H](N)C(=O)O	-3%	·	4.2%	4%
O=C(Nc1nnc(-c2cccnc2)o1)c1cccc([N+](=O)[O-])c1	·	1%	·	·
CCC(=O)c1c(OCc2ccccc2)ccc2c(C)cc(=O)oc12	·	-6%	·	·
CS(=O)(=O)NCc1ccccc1Br	·	1%	·	·
O=c1[nH]c(=S)[nH]c(O)c1N=Nc1ccc(-c2ccccc2)cc1[N+](=O)[O-]	·	-5%	·	·
Cc1cc(C(=O)CSc2nc3ccccc3c(=O)n2C)c(C)n1CC1CCCO1 (stereo not drawn)	·	1%	·	·
(continued)
SMILES	Cruzain inh noDet	SARS PLP yeast	Cruzain Triton	NS1 inh
Cc1nnc(NC(=O)CSc2ccc3nnc(-c4cccnc4)n3n2)s1	·	3%	·	·
Cc1nn(C)cc1CNC(=O)C1C2CCC(C2)C1C(=O)O (stereo not drawn)	·	2%	·	·
CC(C(=O)N=Nc1c(O)n(C)c2ccc(Br)cc12)n1cnc2ccccc2c1=O (stereo not drawn)	·	2%	·	·
O=C(Nc1ccccc1)n1ccc(-c2ccc(-n3ccnc3)cc2)n1	·	-4%	·	·
Cc1ccc(-c2nnc(SCC(=O)N/N=C/c3ccccc3C(=O)O)n2-c2ccccc2)cc1	·	-2%	·	·
Nc1nonc1C(=O)N/N=C/c1ccc(-c2cccc(C(=O)O)c2)o1	·	0%	·	·
CCOC(=O)CCCCC(=O)c1[nH]c(=O)[nH]c1C[n+]1ccccc1	·	1%	·	·
CCC1C=CC=CC[C@H](C)[C@@H](O)[C@](C)(O)C(=O)[C@@H](C)[C@H](O)[C@@H](C)C(=O)[C@H](C)[C@@H](O)[C@H](C)C=CC(=O)OC2[C@@H](C)C(CC1)OC1(CC[C@@H](C)C(C[C@H](C)O)O1)[C@@H]2C (stereo partly drawn)	·	1%	·	·
O=C1c2ccccc2CN1CCSC(=S)N1CCSCC1	·	-4%	·	·
CC(C)N(C(=O)Cn1cnc2cc([N+](=O)[O-])ccc2c1=O)C(C)C	·	-4%	·	·
Cc1cc(C)nc(/N=C2\NC(=O)CC(C(=O)O)N2c2cccc(Cl)c2)n1 (stereo not drawn)	·	0%	·	·
CCOC(=O)N1CCN(C(=O)c2c(N)no[n+]2[O-])CC1	·	1%	·	·
NC1=NC(=O)C(c2ccccc2)O1 (stereo not drawn)	·	-2%	·	·
CCn1cc(C(=O)NNC(=O)c2ccc(Cl)cc2)c(=O)c2ccc(C)nc21	·	-1%	·	·
CC(=O)CCCCn1cnc2c1c(=O)n(C)c(=O)n2C	·	2%	·	·
O=C1NC(=O)N(c2ccccc2)C(=O)/C1=C/c1ccc2c(c1)Cc1ccccc1-2	·	-2%	·	·
N#Cc1ccc(COC(=O)c2ccccn2)cc1	·	-4%	·	·
CC(C)CC1NC(=O)c2ccc(Cl)cc2-n2c1nc1ccc(Cl)cc1c2=O (stereo not drawn)	·	-1%	·	·
O=C1NC(Cc2ccc(O)cc2)c2nc3ccc(Cl)cc3c(=O)n2-c2ccc(Cl)cc21 (stereo not drawn)	·	0%	·	·
O=C(CSc1ccc(-c2cccnc2)nn1)N1CCCc2ccccc21	·	-5%	·	·

At a glance, part of the list above:
SMILES	Cruzain inh noDet	SARS PLP yeast	Cruzain Triton	NS1 inh
Cc1nnc(NC(=O)CSc2ccc3nnc(-c4cccnc4)n3n2)s1	·	3%	·	·
Cc1nn(C)cc1CNC(=O)C1C2CCC(C2)C1C(=O)O (stereo not drawn)	·	2%	·	·
CC(C(=O)N=Nc1c(O)n(C)c2ccc(Br)cc12)n1cnc2ccccc2c1=O (stereo not drawn)	·	2%	·	·

(cont.)
SMILES	Cruzain inh noDet	SARS PLP yeast	Cruzain Triton	NS1 inh
O=C(CN1C(=O)/C(=C\c2cccc(Cl)c2)Oc2ccccc21)N1CCN(c2ccccn2)CC1	·	1%	·	·
O=C(NCCNc1ccc2ccccc2c1)c1cccn2c(=O)c3sccc3nc12	·	2%	·	·
CC1(C)Cn2c(nc(=O)c3c2NCN(CCc2ccccc2)C3)S1	·	2%	·	·
Cc1c(C(=O)O)c(C(=O)O)nc2ccc(N3CCOCC3)cc12	·	0%	·	·
C=C(C(=O)Oc1ccccc1C(C)(C)C)c1ccccc1	·	-1%	·	·
COc1cccc(C2C3=C(N=c4s/c(=C\c5ccccc5O)c(=O)n42)c2ccccc2CC3)c1OC (stereo not drawn)	·	-2%	·	·
O=C(NCc1ccc(F)cc1)c1cccc2c1C(=O)c1ccc(Cl)cc1S2(=O)=O	·	-30%	·	·
CCOC(=O)c1ccc(-n2c(CC)nc3ccccc3c2=O)cc1	·	-1%	·	·
Cc1cccc(CNc2ncnc3ccc(-c4ccc5c(ccn5C)c4)cc23)c1	·	-6%	·	·
Cc1ccc2nc3n(c(=O)c2c1)-c1cc(Cl)ccc1C(=O)NC3Cc1ccccc1 (stereo not drawn)	·	0%	·	·
O=C(Cn1nc(-c2ccccc2)ccc1=O)Nc1cccc(NC(=O)c2ccccn2)c1	·	-2%	·	·
Oc1ccc(CNc2ccc(C(F)(F)F)cc2Cl)c2cccnc12	·	-2%	·	·
N#CCOc1ccc2oc(-c3ccco3)cc(=O)c2c1	·	-8%	·	·
O=C(Cn1c(=O)c(=O)n(Cc2ccccc2)c2ccc(Cl)cc21)Nc1cc(F)ccc1F	·	0%	·	·
CCc1ccc(/C=C2\SC(=S)N(CCC(=O)NC3=NCCS3)C2=O)cc1	·	-1%	·	·
COc1ccc(/C=N/NC(=O)c2cccnc2)cc1Cn1nc([N+](=O)[O-])c(Br)c1C	·	2%	·	·
CC(=O)N1CCN(CC(=O)O)CC1	·	2%	·	·
COC(=O)c1c(N2C(=O)[C@H]3[C@@H](C2=O)[C@]2(C(=O)Nc4ccc(C)cc42)N2CCC[C@@H]32)sc(C)c1C	·	-2%	·	·
O=C(Nc1ccc(Cl)cc1)c1nc[nH]c1C(=O)NCCCNC(=O)c1[nH]cnc1C(=O)Nc1ccc(Cl)cc1	·	-3%	·	·
Cc1ccc2c(=O)n3c(nc2c1)C(Cc1ccccc1)NC(=O)c1cc(Cl)ccc1-3 (stereo not drawn)	·	2%	·	·
CCCCN1CCCC1CNC(=O)c1cc(C#N)c2ccccc2c1OC (stereo not drawn)	·	-7%	·	·

Source: PubChem

Not all compounds are listed; the hit share may differ from the screen's.
